Assay outcomes (PubChem BioAssay)
TRPV1 PAM: human TRPV1 potentiation | Q8NER1 | TRPV1-expressing cells, Fluo-8 calcium influx, capsaicin EC20 potentiation; host cell line not named in the record; control for the full effect not named in the record | potentiation, % at 8.33 µM | 320,000 tested, 0.02% active | AID 540277; active means potentiation above 80%; inconclusive means 30% to 80%; inactive means below 30%; note: 0% is about no effect
Target sequence (Q8NER1 whole entry, looked up): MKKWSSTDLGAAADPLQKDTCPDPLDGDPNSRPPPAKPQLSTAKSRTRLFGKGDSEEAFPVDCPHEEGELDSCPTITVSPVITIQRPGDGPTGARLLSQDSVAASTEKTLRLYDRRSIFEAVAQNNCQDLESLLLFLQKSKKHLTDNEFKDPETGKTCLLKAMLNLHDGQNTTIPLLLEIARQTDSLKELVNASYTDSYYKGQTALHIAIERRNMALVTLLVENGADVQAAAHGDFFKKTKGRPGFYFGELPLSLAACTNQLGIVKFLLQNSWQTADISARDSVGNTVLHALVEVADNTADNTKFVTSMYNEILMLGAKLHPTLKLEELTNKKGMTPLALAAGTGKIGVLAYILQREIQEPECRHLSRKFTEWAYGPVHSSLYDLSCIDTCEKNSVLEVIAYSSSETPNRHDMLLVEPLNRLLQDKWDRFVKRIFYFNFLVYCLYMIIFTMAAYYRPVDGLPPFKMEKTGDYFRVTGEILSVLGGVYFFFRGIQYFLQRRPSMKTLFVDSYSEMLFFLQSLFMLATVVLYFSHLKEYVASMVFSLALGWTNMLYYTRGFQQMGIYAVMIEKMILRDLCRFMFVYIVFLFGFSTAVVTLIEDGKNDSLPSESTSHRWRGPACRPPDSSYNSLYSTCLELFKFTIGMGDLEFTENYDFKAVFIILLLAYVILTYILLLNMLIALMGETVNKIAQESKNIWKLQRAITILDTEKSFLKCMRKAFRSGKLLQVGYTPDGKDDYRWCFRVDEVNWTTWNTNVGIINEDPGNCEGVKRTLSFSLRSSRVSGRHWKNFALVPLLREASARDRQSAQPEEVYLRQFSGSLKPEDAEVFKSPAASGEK
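Fluo-8 calcium influx in TRPV1-expressing cells, kinetic read (ex 480/em 520 nm). Compound added and read 3 min for agonist activity, followed by capsaicin at EC20 final and 2 min further read for enhancement.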
ClpP mod: qHTS Assay for Activators of ClpP; ATP-dependent Clp protease proteolytic subunit (Bacillus subtilis (strain 168)), P80244; 340,000 tested, 1.9% active; Potency, µM (series often up to 57.5 µM), for inactives: at the highest dose activity change, negative = active; AID 651965, 2013; purified B. subtilis ClpP, FRET peptide cleavage, 20 min; active = well fitted falling curve with a large enough effect; inconclusive = small, poorly fitted or top-dose-only effect; inactive = no such curve, though single readings can be large or run the other way; note: potency is the fitted concentration of half-maximal effect; the source files actives as falling curves though it sought activators and does not explain the sign; nearly all actives have a fitted effect of over 65% in size; many hits overshoot -100%
Target sequence (P80244 whole entry, looked up): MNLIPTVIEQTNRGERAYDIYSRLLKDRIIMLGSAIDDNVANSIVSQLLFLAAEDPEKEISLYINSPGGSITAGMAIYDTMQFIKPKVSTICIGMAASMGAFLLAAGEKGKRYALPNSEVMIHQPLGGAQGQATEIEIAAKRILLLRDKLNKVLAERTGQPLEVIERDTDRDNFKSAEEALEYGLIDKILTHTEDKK
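Buffer: 100 mM Tris/HCl pH8, 100 mM KCl, 0.05% low protease BSA, 2.5% glycerol, 0.01% Tween-20. ClpP 10 microg/mL final; 20 min RT; delta FRET normalized to ADEP and DMSO controls.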
Menin MLL FP FL: menin-MLL binding inhibition, fluorescein peptide. Fluorescence polarization, fluorescein-MLL peptide displacement from menin. FP activity change, % at 61.4 µM. 290,000 tested, under 10 active; inconclusive = falling polarisation curve, or a change in total fluorescence; inactive = total fluorescence flat and polarisation flat or rising; no compound was filed as active; the % refers to the polarisation; negative = inhibition;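 note: % of control where 0% means no effect; inhibitors lower the polarisation; unlabelled MLL peptide was the positive control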
Sfp inh: Sfp phosphopantetheinyl transferase inhibition; Q9F4F7; Biochemical Sfp PPTase activity, qHTS; Potency, µM, for inactives: max response, negative = inhibition, most hits filed as inhibitors; 310,000 tested, 3.5% active; active = well fitted inhibition curve with a large enough effect; inconclusive = small, poorly fitted or top-dose-only effect, or another doubt; inactive = no such curve, though single readings can be large or run the other way;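 note: the enzyme is Sfp with the accession as filed and its product quenches rhodamine fluorescence; potency is the fitted concentration of half-maximal effect; 0% = enzyme reaction without inhibitor and -100% = no enzyme wells; top concentration of the series not given in the record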
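Sfp 15 nM + cpd, 15 min RT; start w/ rhodamine-CoA 5 uM, BHQ-2-YbbR 12.5 uM (final); 50 mM Hepes pH 7.6, 10 mM MgCl2, 0.01% NP-40, 0.01% BSA; read 525/598 nm at 0 and 30 min.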
* marks the source's active call; other numbers are inactive results; ? = inconclusive; / = not tested or not shown; & = joins results of further samples. This is a subset; count on the stated rates, not on these rows.

Abbreviations – A = TRPV1 PAM; B = ClpP mod; C = Menin MLL FP FL; D = Sfp inh
CC(C)OC(=O)C(O)(c1ccc(Cl)cc1)c1ccc(Cl)cc1
  A = /	B = /	C = ?	D = -2%

CCCCCCCCCCCCCCCCOC[C@@H](COP(=O)([O-])OCC[N+](C)(C)C)OC(C)=O
  A = /	B = /	C = 0.9	D = -30%&1%

C[C@]12C=CC(=O)C=C1CC[C@@H]1[C@@H]2CC[C@@]2(C)[C@H]1CC[C@]2(C)O
  A = /	B = /	C = 2.2	D = 11%

CC1C(=O)OC2O[C@]3(C)CC[C@H]4C(C)CCC1[C@]24OO3 (stereo not given in full)
  A = /	B = /	C = -4.5	D = -13%

O=C=NCCCCN=C=O
  A = /	B = /	C = 2.8	D = 8%

CCC1(CC)C(=O)NC(=O)NC1=O
  A = /	B = /	C = -7.1	D = 13%

CCC1C=CC=CC[C@H](C)[C@@H](O)[C@](C)(O)C(=O)[C@@H](C)[C@H](O)[C@@H](C)C(=O)[C@H](C)[C@@H](O)[C@H](C)C=CC(=O)OC2[C@@H](C)C(CC1)OC1(CC[C@@H](C)C(C[C@H](C)O)O1)[C@@H]2C (stereo not given in full)
  A = 12	B = /	C = /	D = /

CN(N=O)c1cc(O)ccc1O
  A = -7	B = /	C = -0.7	D = /

Cc1cccc(-n2c(/C=C/c3ccccc3O)nc3ccccc3c2=O)c1
  A = /	B = -13%	C = /	D = /

Cc1ccc(NC(=O)CN2C(=O)CN=C(c3ccccc3)c3ccccc32)cc1Cl
  A = /	B = -2.0%	C = /	D = /

COc1ccc(OCC(=O)N2CCN(Cc3cc(=O)n4nc(-c5ccc(OC)cc5)sc4n3)CC2)cc1
  A = /	B = 3.3%	C = /	D = /

COc1cc([C@@H]2c3cc4c(c(O)c3C[C@H]3COC(=O)[C@@H]32)OCO4)cc(OC)c1OC
  A = /	B = 0.1%	C = /	D = /

Cc1cccc(-n2c(/C=C/c3cccc4ccccc34)nc3ccccc3c2=O)c1
  A = /	B = -1.0%	C = /	D = /

Cc1ccc(OCC(=O)Nc2ccc(Cl)cc2C(=O)c2ccccc2)c(Br)c1
  A = /	B = -1.0%	C = /	D = /

O=P1(NCCCl)OCCC(OO)N1CCCl (stereo not given)
  A = /	B = -5.4%	C = /	D = /

CCOc1ccc(NC(=O)c2cccn(Cc3cccc(Cl)c3)c2=O)cc1
  A = /	B = -2.1%	C = /	D = /

Cc1cc(NC(=O)c2cccn(Cc3cccc(Cl)c3)c2=O)no1
  A = /	B = 35µM*	C = /	D = /

CCCC12CN3CC(C)(CN(C1)C3c1c(C)[nH]c(=O)[nH]c1=O)C2=O (stereo not given)
  A = /	B = 1.6%	C = /	D = /

Cc1nnc(NC(=O)c2cccn(Cc3ccc(Cl)cc3)c2=O)s1
  A = /	B = -2.0%	C = /	D = /

COc1cccc(-n2c(/C=C/c3ccccc3O)nc3ccccc3c2=O)c1
  A = /	B = 27%	C = /	D = /

C[C@H]1CCCC=CC2C[C@H](O)C[C@@H]2[C@H](O)C=CC(=O)O1 (stereo not given in full)
  A = /	B = 0.1%	C = /	D = /

CCc1ccccc1NC(=O)c1cccn(Cc2ccccc2F)c1=O
  A = /	B = 39%	C = /	D = /

O=C(CN1CCCC2CCCCC21)c1ccc(I)cc1 (stereo not given)
  A = /	B = 2.0%	C = /	D = /

Cc1ccc(NC(=O)Cn2cc(C(=O)c3ccccc3)c3ccccc32)cc1
  A = /	B = -27%	C = /	D = /

COc1ccc(C)cc1NC(=O)N(Cc1ccc2c(c1)OCO2)C1CCN(Cc2ccccc2)CC1
  A = /	B = -0.2%	C = /	D = /

Nc1c(C(=O)Nc2ccc(OC(F)(F)F)cc2)sc2nc3c(cc12)N1CCC3CC1
  A = /	B = 4.1%	C = /	D = /

O=C1CC(c2ccccc2Br)c2c(c3ccccc3oc2=O)O1 (stereo not given)
  A = /	B = 4.3%	C = /	D = /

N#Cc1cccc(NC(=O)c2sc3nc4c(cc3c2N)N2CCC4CC2)c1
  A = /	B = -28%	C = /	D = /

Cc1cc(NC(=O)CSc2nc3c([nH]c4ccccc43)c(=O)n2-c2ccc(Cl)cc2)no1
  A = /	B = 37%	C = /	D = /

CC(=O)NCC(N)C(=O)c1ccc(C)cc1 (stereo not given)
  A = /	B = -0.9%	C = /	D = /

Part of the list above in order of formula weight, falling:
Abbreviations – A = TRPV1 PAM; B = ClpP mod; C = Menin MLL FP FL; D = Sfp inh
Nc1c(C(=O)Nc2ccc(OC(F)(F)F)cc2)sc2nc3c(cc12)N1CCC3CC1
  A = /	B = 4.1%	C = /	D = /

O=C(CN1CCCC2CCCCC21)c1ccc(I)cc1 (stereo not given)
  A = /	B = 2.0%	C = /	D = /

N#Cc1cccc(NC(=O)c2sc3nc4c(cc3c2N)N2CCC4CC2)c1
  A = /	B = -28%	C = /	D = /

Whole records as entered above. Screens in order: TRPV1 PAM, ClpP mod, Menin MLL FP FL, Sfp inh
CCc1ccccc1NC(=O)c1cccn(Cc2ccccc2F)c1=O across the screens: /, 39%, /, /
Cc1cc(NC(=O)CSc2nc3c([nH]c4ccccc43)c(=O)n2-c2ccc(Cl)cc2)no1 across the screens: /, 37%, /, /

(next part)
Abbreviations – A = TRPV1 PAM; B = ClpP mod; C = Menin MLL FP FL; D = Sfp inh
Cc1cccc(Cn2cccc(C(=O)Nc3nc4ccccc4s3)c2=O)c1
  A = /	B = 2.4%	C = /	D = /

CCCCc1nn2c(=O)cc(COC(=O)Cc3ccccc3)nc2s1
  A = /	B = -4.3%	C = /	D = /

O=C(Nc1ccon1)c1cccn(Cc2cccc(Cl)c2)c1=O
  A = /	B = 4.3%	C = /	D = /

Cn1c(=O)n(C)c2cc(CNCCc3ccccc3F)ccc21
  A = /	B = 0.0%	C = /	D = /

CCc1ccccc1NC(=O)C(CC)Oc1ccccc1-c1nnc(-c2ccccc2)o1 (stereo not given)
  A = /	B = ?	C = /	D = /

Cc1cccc(NC(=O)Cn2cc(C(=O)c3ccccc3)c3ccccc32)c1C
  A = /	B = 0.1%	C = /	D = /

O=C(COc1ccccc1[N+](=O)[O-])N1CCN(CCc2ccncc2)CC1
  A = /	B = -0.5%	C = /	D = /

Cc1ccccc1-c1nc(CN2C(=O)CN=C(c3ccccc3)c3ccccc32)c(C)o1
  A = /	B = 2.3%	C = /	D = /

Cc1ccc(CNC(=O)c2ccc(Nc3nc4ccccc4n4nnnc34)cc2)cc1
  A = /	B = 130%	C = /	D = /

CC(C)Cc1nc2cccnc2n1C1CCNCC1
  A = /	B = -3.3%	C = /	D = /

COc1ccc(C(=O)Nc2ccc(S(=O)(=O)N(Cc3ccccc3)c3ccccc3)cc2)cc1
  A = /	B = ?	C = /	D = /

C[C@H]1O[C@@H](O[C@H]2[C@@H](O)C[C@@H](O[C@H]3[C@@H](O)C[C@H](O[C@H]4CC[C@@]5(C)[C@H](CC[C@@H]6[C@@H]5CC[C@]5(C)[C@@H](C7=CC(=O)OC7)CC[C@]65O)C4)O[C@@H]3C)O[C@@H]2C)C[C@H](O)[C@@H]1O
  A = /	B = 0.6%	C = /	D = /

O=S1(=O)N(Cc2ccccc2Cl)CCCN1Cc1ccccc1Cl
  A = /	B = -1.8%	C = /	D = /

Cc1cc2ccccc2n1-c1ccc(C(=O)N2CCC(C(=O)NCc3ccc(Cl)cc3)CC2)s1
  A = /	B = ?	C = /	D = /

COc1ccccc1NC(=O)N(Cc1ccc2c(c1)OCO2)C1CCN(Cc2ccccc2)CC1
  A = /	B = -9.1%	C = /	D = /

O=C(NCCc1ccc(Cl)cc1)c1ccc(Nc2nc3ccccc3n3nnnc23)cc1
  A = /	B = 119%	C = /	D = /

CN1CCN(c2oc(-c3ccc(COc4ccccc4)o3)nc2C#N)CC1
  A = /	B = 4.4%	C = /	D = /

CCCOc1ccc(C2SCC(=O)Nc3c2c(C)nn3-c2cccc(C)c2)cc1OC (stereo not given)
  A = /	B = 1.7%	C = /	D = /

Nc1ncnc2c1ncn2[C@@H]1O[C@@H]2COP(O)(=S)O[C@H]2[C@H]1O (stereo not given in full)
  A = /	B = -0.5%	C = /	D = /

CC(=O)NS(=O)(=O)c1ccc(NC(=O)c2cccn(Cc3ccc(Cl)cc3)c2=O)cc1
  A = /	B = 0.8%	C = /	D = /

O=C(Nc1ccon1)c1cccn(Cc2ccccc2)c1=O
  A = /	B = 3.6%	C = /	D = /

O=C(Nc1ccc2c(c1)OCO2)c1cccn(Cc2ccc(F)cc2)c1=O
  A = /	B = 0.4%	C = /	D = /

COc1cc([C@@H]2c3cc4c(cc3[C@@H](O)C3COC(=O)C32)OCO4)cc(OC)c1O (stereo not given in full)
  A = /	B = -1.4%	C = /	D = /

COc1ccc(-c2nc(CN3C(=O)CN=C(c4ccccc4)c4ccccc43)c(C)o2)cc1
  A = /	B = 0.2%	C = /	D = /

O=C(Nc1ccc2c(c1)OCO2)c1cccn(Cc2cccc([N+](=O)[O-])c2)c1=O
  A = /	B = -1.2%	C = /	D = /

O=C(Nc1ccc2c(c1)OCCO2)c1cccn(Cc2ccccc2)c1=O
  A = /	B = 1.3%	C = /	D = /

Cc1ccc(NC(=O)c2cccn(Cc3ccccc3C)c2=O)c(C)c1
  A = /	B = -1.9%	C = /	D = /

O=C(Nc1ccc(Cl)cc1C(=O)c1ccccc1)c1ccccc1Br
  A = /	B = 1.4%	C = /	D = /

O=C(Nc1ccccc1C(F)(F)F)c1cccn(Cc2ccccc2)c1=O
  A = /	B = 28%	C = /	D = /

COc1ccc(NC(=O)CCc2nc(C3=CCN(Cc4cccc(Cl)c4)CC3)no2)cc1OC
  A = /	B = -3.9%	C = /	D = /

COc1ccc(C2=C(C(C)=O)Sc3nnc(-c4ccc(Cl)cc4)n3N2C(C)=O)cc1OC
  A = /	B = ?	C = /	D = /

CCc1ccc(-n2nc(C)c3c2NC(=O)CSC3c2ccc(C(=O)OC)cc2)cc1 (stereo not given)
  A = /	B = -2.5%	C = /	D = /

O=C(Nc1ccon1)c1cccn(Cc2cccc([N+](=O)[O-])c2)c1=O
  A = /	B = 0.7%	C = /	D = /

O=C1CN=C(c2ccccc2Cl)c2cc(Cl)ccc2N1Cc1cccc(Cl)c1
  A = /	B = -3.6%	C = /	D = /

Cc1ccccc1-n1nc(C)c2c1NC(=O)CSC2c1ccc(N(C)C)cc1 (stereo not given)
  A = /	B = -0.5%	C = /	D = /

CN(C)c1ccc(NC(=O)c2sc3nc4c(cc3c2N)N2CCC4CC2)cc1
  A = /	B = -2.2%	C = /	D = /

O=c1c2ccccc2nc(/C=C\c2ccc(F)cc2)n1-c1ccccc1F
  A = /	B = -0.7%	C = /	D = /

CCN(CC)C(=O)c1ccc(NC(=O)CCn2nc(-c3ccc(Cl)cc3)c3ccccc3c2=O)cc1
  A = /	B = -3.0%	C = /	D = /

Cc1ccccc1CN1C(=O)CN=C(c2ccccc2)c2cc(Cl)ccc21
  A = /	B = 1.6%	C = /	D = /

COc1ccc(CN2CCN(C(=O)COc3ccccc3)CC2)c(OC)c1
  A = /	B = -3.8%	C = /	D = /

CCc1ccc(NC(=O)c2ccc3oc(=O)n(Cc4ccccc4)c3c2)cc1
  A = /	B = ?	C = /	D = /

O=C(CN1CCCC1)c1ccccc1
  A = /	B = -3.5%	C = /	D = /

c1ccc2c[n+](CCCCCCCCCC[n+]3ccc4ccccc4c3)ccc2c1
  A = /	B = -23%	C = /	D = /

O=c1c2ccccc2nc(/C=C/c2ccccc2F)n1-c1cccc(O)c1
  A = /	B = 4.7%	C = /	D = /

O=C(Nc1ccc2nc(SCC(=O)N3CCCc4ccccc43)sc2c1)c1ccccc1F
  A = /	B = 18µM*	C = /	D = /

COc1ccc(-c2nc(CN3C(=O)CN=C(c4ccccc4)c4cc(Cl)ccc43)c(C)o2)cc1
  A = /	B = 0.3%	C = /	D = /

CC(C)c1ccc(NC(=O)CN2C(=O)CN=C(c3ccccc3)c3ccccc32)cc1
  A = /	B = -4.8%	C = /	D = /

O=Cc1ccccc1
  A = /	B = 1.3%	C = /	D = /

COc1ccc(C(=O)C2CCCN(CCc3ccccc3)C2)cc1OC (stereo not given)
  A = /	B = -11%	C = /	D = /

Cc1cc(OCC(=O)N2CCN(CCc3ccncc3)CC2)ccc1Cl
  A = /	B = 0.0%	C = /	D = /
